VACV Venus inh – qHTS for Stage-Specific Inhibitors of Vaccinia Orthopoxvirus: Venus Reporter Primary qHTS; AID 720580, 2013; Vaccinia virus Venus reporter expression, fluorescence; 0.46% of 330,000 active; Potency, µM (series often up to 36.5 µM), for the others: at the highest dose activity change, negative = inhibition, hits mostly inhibitors; active means well fitted inhibition curve with a large enough effect; inconclusive means small, poorly fitted or top-dose-only effect; inactive means no such curve, though single readings can be large or run the other way; tested in A549 cells; further: nearly all actives have a fitted effect of over 30% in size; inactives centre near -10
VACV mCherry inh – qHTS for Stage-Specific Inhibitors of Vaccinia Orthopoxvirus: mCherry Reporter Primary qHTS; Vaccinia virus mCherry reporter infection, fluorescence; about a quarter of the inactives have no number; Potency, µM (series often up to 36.5 µM), without a hit: at the top dose activity change, negative = inhibition, usual class: inhibitors; 0.63% of 310,000 active; AID 720579, 2013; active = well fitted inhibition curve with a large enough effect; inconclusive = small, poorly fitted or top-dose-only effect; inactive = no such curve, though single readings can be large or run the other way; tested in A549 cells; further: nearly all actives have a fitted effect of over 35% in size; inactives centre near -10
The depositor's hits bear a star; i = inactive; ? = inconclusive; nt = not tested or not shown; & = joins results of further samples. On the % scale 0 is the no-effect control and ±100 the full control effect; potency means the concentration at half of the fitted maximal effect. Compounds were not picked by outcome; overall some 0.87% were active at least once.

SMILES	VACV Venus inh	VACV mCherry inh
CC(=O)c1cc2c(cc1N/C(=N/S(=O)(=O)c1ccc(C)cc1)c1ccccc1)OCO2	-18%&-12%	-17%&-12%
CC(C)[C@H]1COCCS(=O)(=O)N1Cc1ccccc1-c1cccc(Cl)c1	-18%	-10%
CC(C)S(=O)(=O)C/C(N)=N/OC(=O)c1cc(Cl)cc(Cl)c1	8%	i
CC(=Nc1ccc2c(c1)nc(CO)n2C)C1=C(O)CC(C)(C)CC1=O	1%	1%
CC(C)N(Cc1ccccc1)C(=O)COC(=O)C1CCCCC1	-6%	-1%
CC(=O)c1c(Nc2ccc3c(c2)OCCO3)oc(C)cc1=O	-6%	0%
COc1ccc(C)cc1NC(=O)CN(C)S(=O)(=O)c1cc(C)ccc1OC	-19%	-15%
COc1cc(C(=O)NCCC(c2ccccc2)c2ccccc2)cc(OC)c1OC	-4%	-17%
CN1C(=O)c2ccccc2Sc2ccc(NC(=O)NC3CC3)cc21	-13%	nt
Cc1ccc(N2CC(C(=O)Nc3cc(Cl)ccc3-n3cncn3)CC2=O)cc1 (stereo unspecified)	-2%	-6%
O=C(Nc1ccccc1)c1cc(C2CCCCN2C(=O)c2ccc3c(c2)CCO3)on1 (stereo unspecified)	-6%	7%
Cc1ccc(N2CC(NS(=O)(=O)c3cccnc3)CC2=O)cc1 (stereo unspecified)	-16%	i
COc1cc2c(cc1OC)CN(c1nc(CN3CCOCC3)nc3sc4c(c13)CCCC4)CC2	?	?
Fc1ccc(-c2noc3ncnc(NCc4cccc(Cl)c4)c23)cc1	5%	4%
Cc1ccnc(NC(=O)CNC(=O)Cc2cccc3ccccc23)c1	-12%	-9%
Cc1sc(NC(=O)CS(=O)(=O)c2ccccc2)c(C(N)=O)c1C	1%	-11%
COc1ccc2oc(=O)c(C(=O)Nc3ccccc3-c3ccccc3)cc2c1	-2%	-11%
COc1ccc(-c2cc(C(F)(F)F)nc(NCCc3ccccc3)n2)cc1	-3%	-13%
CCN(CC)C(=O)Cn1c(=O)n(-c2ccccc2)c(=O)c2c3c(sc21)CCC3	1%	9%
Cc1ccc(OCC(=O)N(Cc2ccco2)Cc2ccco2)cc1	-7%	-1%
COc1ccc(N2CCN(C(=O)Cc3cccs3)CC2)cc1	-6%	i
O=C(C[n+]1cccc2cccc(O)c21)c1ccc(F)cc1	-6%	-12%
Cc1[nH]c(C)c(S(=O)(=O)N2CCC(C)CC2)c1C(=O)N1CCCC1	-15%	-22%
Cc1ccc2c(c1Br)C(O)(CC(=O)c1ccc(F)cc1)C(=O)N2 (stereo unspecified)	0%	8%
O=C(O)c1cnn(-c2nc(-c3cccc(F)c3)cs2)c1C(F)(F)F	0%	4%
COc1ccccc1N1CCN(C(=O)c2cc3c(-c4ccccc4F)nn(C)c3s2)CC1	-29%	?
COP(=O)(OC)C1(O)C(=O)Nc2ccc(Br)cc21 (stereo unspecified)	1%	i
S=C1NCN(CCc2ccccc2)CN1	-10%	i
Cc1ccc(S(=O)(=O)Nc2cc3c4c(c2)CCN4C(=O)CC3)cc1	-17%	-16%
Cc1nc(NC(=O)c2c(-c3ccccc3)noc2C)sc1C(=O)N(C)C	-9%	i

Five compounds picked at random from the list so far:
SMILES	VACV Venus inh	VACV mCherry inh
Cc1ccc(S(=O)(=O)Nc2cc3c4c(c2)CCN4C(=O)CC3)cc1	-17%	-16%
Cc1ccc2c(c1Br)C(O)(CC(=O)c1ccc(F)cc1)C(=O)N2 (stereo unspecified)	0%	8%
Cc1[nH]c(C)c(S(=O)(=O)N2CCC(C)CC2)c1C(=O)N1CCCC1	-15%	-22%
Cc1nc(NC(=O)c2c(-c3ccccc3)noc2C)sc1C(=O)N(C)C	-9%	i
COc1ccccc1N1CCN(C(=O)c2cc3c(-c4ccccc4F)nn(C)c3s2)CC1	-29%	?

Later entries
SMILES	VACV Venus inh	VACV mCherry inh
CCCCN(CCCC)C1=C(C(=O)c2ccccc2)N(C)S(=O)(=O)c2ccccc21	-10%	-5%
COC(=O)C1(C(=O)OC)C[C@H](c2cccs2)N(Cc2ccccc2OC)[C@@H]1c1ccc(F)cc1	6%	i
CCOc1ccc(NC(=O)c2sc3nc4c(c(-c5ccc(OC)cc5)c3c2N)C(=O)CC(C)(C)C4)cc1	-26%	?
CC(=O)CNc1ccc(S(=O)(=O)N/N=C/c2ccccc2)cc1	-14%	i
CCOc1ccccc1NC(=O)Cn1c(=O)n(CC(=O)NCc2ccccc2Cl)c(=O)c2sccc21	-29%	-26%
COC(=O)C1(CCSC)NC(c2ccc(O)c(OC)c2)C2C(=O)N(c3ccc(C)cc3)C(=O)C21 (stereo unspecified)	-2%	?
Cc1c(C(=O)N2CCCC2)c(S(=O)(=O)Nc2ccccc2)c(C)n1C	-17%	i
CCOc1cc(C#N)c(NC(=O)c2ccc(OC)c(S(=O)(=O)N3CCCC3)c2)cc1OCC	6%	15%
CC1Sc2ccc(S(=O)(=O)CCC(=O)N3CCN(c4ccccc4)CC3)cc2NC1=O (stereo unspecified)	-15%	?
O=C1NC[C@H](Cc2ccc(O)cc2)N(C[C@@H]2CCCN2C[C@H](Cc2ccccc2)N2C[C@H](Cc3ccc(O)cc3)N(CC3CCCCC3)C(=O)C2=O)C1=O	-4%	-10%

Some of these compounds in order of molar mass, descending:
SMILES	VACV Venus inh	VACV mCherry inh
O=C1NC[C@H](Cc2ccc(O)cc2)N(C[C@@H]2CCCN2C[C@H](Cc2ccccc2)N2C[C@H](Cc3ccc(O)cc3)N(CC3CCCCC3)C(=O)C2=O)C1=O	-4%	-10%
CCOc1ccc(NC(=O)c2sc3nc4c(c(-c5ccc(OC)cc5)c3c2N)C(=O)CC(C)(C)C4)cc1	-26%	?
COC(=O)C1(CCSC)NC(c2ccc(O)c(OC)c2)C2C(=O)N(c3ccc(C)cc3)C(=O)C21 (stereo unspecified)	-2%	?

Returning to the listing, repeating the 6 entries before the break.
SMILES	VACV Venus inh	VACV mCherry inh
CCOc1ccccc1NC(=O)Cn1c(=O)n(CC(=O)NCc2ccccc2Cl)c(=O)c2sccc21	-29%	-26%
COC(=O)C1(CCSC)NC(c2ccc(O)c(OC)c2)C2C(=O)N(c3ccc(C)cc3)C(=O)C21 (stereo unspecified)	-2%	?
Cc1c(C(=O)N2CCCC2)c(S(=O)(=O)Nc2ccccc2)c(C)n1C	-17%	i
CCOc1cc(C#N)c(NC(=O)c2ccc(OC)c(S(=O)(=O)N3CCCC3)c2)cc1OCC	6%	15%
CC1Sc2ccc(S(=O)(=O)CCC(=O)N3CCN(c4ccccc4)CC3)cc2NC1=O (stereo unspecified)	-15%	?
O=C1NC[C@H](Cc2ccc(O)cc2)N(C[C@@H]2CCCN2C[C@H](Cc2ccccc2)N2C[C@H](Cc3ccc(O)cc3)N(CC3CCCCC3)C(=O)C2=O)C1=O	-4%	-10%
CN(C)c1nc(F)c(F)c(S(=O)(=O)c2ccccc2)c1F	-24%	?
C[C@H](NC(=O)[C@H]1N2C(=O)c3ccccc3C2SC1(C)C)C(=O)N1CCC[C@H]1C(=O)O (stereo partly specified)	-8%	-6%
COc1cccc(NC(=O)CN(C)C(=O)c2cc(Cl)nc3ccccc23)c1	-17%	2%
COCCNC(=O)Cn1cnc2c1c(=O)n(C)c(=O)n2C	-11%	nt
CCC(O)CNc1nc(-n2nc(C)cc2C)nc2sc3c(c12)CC(C)(C)OC3 (stereo unspecified)	-6%	-5%
CC(=O)C[C@@H]1OC[C@H](CO)N1S(=O)(=O)c1ccc(C)cc1	-5%	-6%
COc1cc2nc(N3CCOCC3)nc(NC(C)C)c2cc1OC	-21%	-23%
Nc1nc(SCC(=O)NCc2ccco2)[nH]c(=O)c1-c1ccccc1	-1%	i
Cc1nc(-c2cccc(NC(=O)C(C)Oc3ccccc3)c2)cs1 (stereo unspecified)	-18%	0%
CCS(=O)(=O)N1CCN(Cc2ccc([N+](=O)[O-])cc2)CC1	-8%	-12%
Cc1ccc(-n2ccc(=O)c(C(=O)O)n2)cc1	-9%	-11%
O=C(O)c1cc2cc(Cl)ccc2[nH]1	-12%&-12%	-24%
Cc1ccccc1C(=O)Nc1ccccc1-c1nc(-c2ccccc2)no1	-8%	-19%
CN(C)c1ccc(/C=C2\CCc3ccccc32)cc1	12%	23%
COc1ccc(-c2ccc(CCC(=O)O)n2NC(=O)c2ccc(O)cc2)cc1	-6%	-18%
CC1CCN(C(=O)C2CCCN2S(=O)(=O)c2ccc(Cl)cc2)CC1 (stereo unspecified)	-12%	i
O=C(NCc1ccc2c(c1)OCO2)c1nc(Cn2ccc([N+](=O)[O-])n2)no1	8%	7%
CCOC(=O)c1cnc2c(C#N)c(C)nn2c1C	-12%	nt
Cc1ccc2nc(C)cc(C(=O)OCC(=O)c3ccc(Cl)c([N+](=O)[O-])c3)c2c1	3%	nt
CC(C)(C)OC(=O)CNC(=O)c1[nH]cnc1C(=O)NCCCCCN	-9%	i
Nc1nn(-c2ccccc2)nc1C(=O)OCc1c(F)cccc1Cl	-4%	3%
CN(Cc1cnn(-c2ccccc2)c1)C(=O)c1cccc(S(=O)(=O)Nc2ccccc2F)c1	-12%	-19%
O=C(O)/C=C\C(=O)Nc1ccc(N2CCN(c3ccc(Cl)cc3)CC2)cc1	24%	i
Cc1cc(NC(=O)COC(=O)c2ccc(S(=O)(=O)C(F)F)cc2)n(-c2ccccc2)n1	-8%	-14%
O=C(Nc1ccc2nc(-c3cccnc3)[nH]c2c1)c1ccccc1F	-16%	-4%
O=C(CN1C(=O)NC2(CCc3ccccc32)C1=O)Nc1ccc(Cl)cc1F (stereo unspecified)	-14%	i
Cc1nc(SCC(=O)N2CCN(C(=O)c3cccs3)CC2)c2c(C)c(C)sc2n1	-25%	-29%
COc1ccc(-n2cc(CNCCc3cscn3)c(-c3ccccc3Cl)n2)cc1	-11%	-14%
CN(C)c1cnn(-c2ccccc2)c(=O)c1Cl	-10%	-13%
COc1cc(OC)c(C(=O)OCC(=O)Nc2ccc(S(=O)(=O)N3CCOCC3)cc2)cc1OC	-9%	-9%
COc1ccc(N2CCN(C(=O)c3nc4nc(C)cc(C)n4n3)CC2)cc1	7%	-12%
Nc1[nH]c(C(=O)c2ccccc2)c(-c2ccccc2C(F)(F)F)c1C(=O)NCc1ccc(F)cc1	-7%	i
CCN1CCN(CC(O)COCc2ccccc2)CC1 (stereo unspecified)	-18%	nt
O=C(O)C(Cc1ccccc1-c1ccccc1)C(=O)O	-3%	-14%
O=C(NNC(=S)Nc1ccc(Cl)cc1Cl)C1CC1	-12%	-14%
O=C(Nc1ccc2c(c1)OCCO2)C1CCN(C(=O)c2ccc(F)cc2)CC1	-15%	-2%
O=C(NC1CCCCC1)c1cc(Cl)nc2ccccc12	-9%	i
Cc1cc(S(=O)(=O)N2CCOCC2)ccc1OCC(=O)NCc1ccccn1	-2%	-15%
N#Cc1c(N)sc2c1CCN(CCc1ccccc1)C2	14%	-6%
CC(=O)N/C(=C\c1ccccc1)C(=O)Nc1ccc(O)cc1	-3%	-6%
Cc1ccsc1C(=O)N1CCC1(C)C(=O)NS(=O)(=O)c1ccccc1C(F)(F)F (stereo unspecified)	9%	-2%
COc1cc2c(cc1OC)CN(CC(=O)NC(=O)NC(C)(C)C)CC2	-4%	-4%
N#CCCSC(=S)C1CCCC1=N (stereo unspecified)	-2%	i
CCCCc1nn2c(=O)cc(COC(=O)c3ccccc3NC(=O)c3cccs3)nc2s1	-11%	-21%
Cc1ccc(-c2ccc(CCC(=O)O)n2NC(=O)c2ccc([N+](=O)[O-])cc2)cc1	-12%	-6%
Cc1cccc(C)c1NC(=O)c1ccc2sc([C@@H]3O[C@H](CO)[C@H](O)[C@H](O)[C@H]3O)nc2c1	4%	i
O=C1NC(=O)C(Cc2ccccc2F)(C2CCN(Cc3cccn3-c3cccnc3)CC2)N1 (stereo unspecified)	0%	i
O=C(NCC1CCCCC1)C1(CC2CC(c3cccc(Br)c3)=NO2)CCNCC1 (stereo unspecified)	10µM*	11µM*
Cc1cc(N2CCCC(C(=O)Nc3cccc4ccccc34)C2)n2ncnc2n1 (stereo unspecified)	-6%	-13%
Cc1ccc(C)c(N(C(=O)c2csnn2)C(C(=O)NC2CCCC2)c2ccncc2)c1 (stereo unspecified)	3%	-1%

(further entries)
SMILES	VACV Venus inh	VACV mCherry inh
COc1ccc(-c2ccc(C(=O)Nc3cccc(Oc4ccccc4)c3)c3occc23)c(C)c1	-1%	18%
O=C1CC(c2cccc(O)c2)Oc2ccccc21 (stereo unspecified)	-16%	-21%
COc1cc(CN2CCCC(n3cc(C(=O)N4CCCC4)nn3)C2)cc(OC)c1 (stereo unspecified)	-12%	-15%
Cn1cc(C(=O)NCc2ccc(F)cc2)cn1	-4%	i
Cc1ccc(SCc2ccc(C(=O)Nc3cccnc3)cc2)cc1	-8%	-9%
Clc1ccc(OCCn2ccnc2)c2ccccc12	-13%	-17%
O=C(Nc1ccc(S(=O)(=O)N2CCOCC2)cc1)c1cccs1	-4%	-16%
COc1ccc(C[C@H]2CN3C(=NC[C@@H]3C)N2CCNC(=O)CCC2CCCCC2)cc1	-12%	i
CCOC(=O)c1cccc(NC(=S)NC(=O)c2cccnc2)c1	-17%	-10%
CCOc1ccc(/C=C2\SC(=S)N(CC(=O)N(CCO)C(C)(C)C)C2=O)cc1	-4%	-7%
COc1cc2c(NC3CCN(C)CC3)nc(N3CCCN(C)CC3)nc2cc1OCCOCCN1CCCC1	-10%	-10%
O=[N+]([O-])c1ccc(NN=C(Oc2ccccc2)c2ccc([N+](=O)[O-])cc2)cc1	-16%	-7%

Bioassay records deposited in PubChem by National Center for Advancing Translational Sciences (NCATS).
